HIV Env fusion = blocks HIV Env-driven cell-cell fusion | HeLa-JRFL Env/CEM21 cell fusion, luciferase | inhibition, % at 12.3 µM | 360,000 tested, 1.1% active | AID 651610;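 active = mean replicate inhibition score of at least 50 and every replicate individually at or above 50; inconclusive = only one of the two criteria met; inactive = mean below 50 and not all replicates reaching 50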;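 note: 0% = plate neutral controls and 100% = maraviroc near 300 nM; one replicate is shown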
MT1-MMP act inh = blocks activation of human MT1-MMP. HT1080 RFP-PRO-GFP cells, GFP/RFP ratio fluorescence, overnight; percent of plate control window, DMSO zero. 360,000 tested, 0.061% active. GFP/RFP ratio change, % at 20 µM. AID 651647;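 active = GFP/RFP ratio change of at least 30% with cell ATP level not reduced by more than half and red fluorescence within 50% of control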; note: strong numbers were not always called active
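Assay system: RFP-PRO-GFP reporter HT1080 cells; read-out basis: GFP/RFP fluorescence ratio; benchmarks: DMSO wells and RFP-L50D-GFP cells; doses: 20 µM single dose, 1% DMSO; schedule: overnight cell settling, then overnight compound exposure, 37 °C, 5% CO2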
CSC inhib = cancer stem cell inhibition. cancer stem cell-like cells viability, luminescence. inhibition, % at 7.5 µM. 300,000 tested, 1.1% active;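 active = mean at 75% or more and at least half the replicates too; inconclusive = mean and replicates disagree; tested in HMLE shEcad cells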;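 note: 0% = median of negative and 100% = median of positive control wells; the first replicate is given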
Rce1 inh = blocks yeast Ras-converting enzyme; 290,000 tested, 0.27% active; yeast membranes, quenched prenylated peptide cleavage fluorescence; Q03530; calls only;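 active = fall in fluorescence gain of 50% or more versus controls, with final raw signal at or below 3038400; inconclusive = same 50% fall but final raw signal above 3038400; inactive = fall in fluorescence gain under 50%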;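 note: plate controls were neutral control wells for no effect and wells lacking membranes for full effect; tested at 10 µM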
UUG fidelity = alters start codon recognition fidelity in yeast. S. cerevisiae UUG-firefly luciferase reporter, luminescence/redox ratio. activity score, % at 18.7 µM. 350,000 tested, 0.13% active. AID 602363;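 active = replicate mean at a twofold rise or more, about +100% in these data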;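 note: firefly luciferase made from a UUG start codon reports start codon fidelity; reporter light over untreated wells divided by growth signal over untreated wells; some hits fall short of that in this replicate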
PABP polyA inh = PABP-poly(A) binding inhibition | AID 2014 | P11940 | 290,000 tested, 1% active | PABP-poly(A) RNA binding, fluorescence polarization | inhibition, % at 35 µM;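 active = 50% or more with normal probe brightness, or confirmed in later tests; inconclusive = above 50% with abnormal brightness, or retests that disagree; inactive = below 50% or failed in later tests; about a fifth of its hits are not listed in these tables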;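 note: calls also rest on retests at 20 µM and on dose response follow-up; controls were probe without protein and protein plus probe with vehicle; some compounds called inactive have numbers as strong as hits; many hits fall short of the cut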
Target sequence (P11940 whole entry, looked up): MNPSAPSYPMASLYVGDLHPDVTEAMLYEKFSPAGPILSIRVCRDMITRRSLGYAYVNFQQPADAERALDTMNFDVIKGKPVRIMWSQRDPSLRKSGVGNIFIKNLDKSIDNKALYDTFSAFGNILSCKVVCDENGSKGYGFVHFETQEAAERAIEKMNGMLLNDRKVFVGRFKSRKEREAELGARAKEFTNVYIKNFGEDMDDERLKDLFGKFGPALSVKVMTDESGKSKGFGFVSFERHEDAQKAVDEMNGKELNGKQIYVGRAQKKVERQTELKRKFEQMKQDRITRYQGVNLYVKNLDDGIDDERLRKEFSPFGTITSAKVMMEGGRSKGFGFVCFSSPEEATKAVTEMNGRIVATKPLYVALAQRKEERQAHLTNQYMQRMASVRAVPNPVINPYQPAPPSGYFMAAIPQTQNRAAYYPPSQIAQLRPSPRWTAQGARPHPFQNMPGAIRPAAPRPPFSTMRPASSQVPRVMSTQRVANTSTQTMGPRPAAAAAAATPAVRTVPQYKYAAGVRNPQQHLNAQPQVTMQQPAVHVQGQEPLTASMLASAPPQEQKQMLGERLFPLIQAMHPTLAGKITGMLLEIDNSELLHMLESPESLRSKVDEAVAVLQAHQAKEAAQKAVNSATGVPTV
eIF4H inh = inhibitors of RNA binding by human eIF4H; Q15056; eIF4H fluorescence polarization binding assay; inhibition, % at 35 µM; 290,000 tested, 0.94% active;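 active = 50% or more with normal probe brightness, or confirmed in later tests; inconclusive = above 50% with abnormal brightness, or retests that disagree; inactive = below 50% or failed in later tests; about a fifth of its hits are not listed in these tables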;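 note: calls also rest on retests at 20 µM and on dose response follow-up; 0% = protein and probe with vehicle and 100% = probe without protein; strong numbers were not always called active; many hits fall short of the cut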
MT1-MMP act inh RFP = recorded beside MT1-MMP act inh, whose call it bears; RFP signal change, %; measured here: RFP expression control read;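 0 = vehicle wells; hits needed this value within 50% of zero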
The depositor's hits bear a star; i = inactive; u = inconclusive; x = no result given; & = joins results of further samples. Not all compounds are listed; count on the stated rates, not on these rows.

SMILES	HIV Env fusion	MT1-MMP act inh	MT1-MMP act inh RFP	CSC inhib	Rce1 inh	UUG fidelity	PABP polyA inh	eIF4H inh
COc1ccc(NC(=O)C(CCSC)N2C(=O)c3ccccc3C2=O)cc1 (centres undefined)	-88.9	-3.6	6.0	-5.1	i	-1.4	7.6	1.2
COC(=O)c1sccc1N/N=C/c1cccc(OC)c1O	-125.5	1.7	-2.0	20.5	i	-23.1	0.4	0.2
COc1ccc(NC(=O)c2ccc3c(c2)N(C)CCS3)cc1	-119.2	2.0	6.0	8.0	i	-18.4	2.0	9.7
O=S(=O)(NC1CCCCC1N1CCC(O)CC1)c1ccccc1 (centres undefined)	-10.4	-2.4	0.1	-4.6	i	0.8	-2.6	-1.7
O=C(/C=C/c1ccc(Cl)c(Cl)c1)N1CCc2ccccc21	-3.3	2.6	3.0	2.9	i	x	4.6	-0.2
C=C1CCN([C@@H](C)C(=O)NCc2ccc(OC)cc2)S(=O)(=O)c2ccccc21	2.2	0.8	-8.0	-2.3	i	-3.5	7.5	-9.2
Fc1cccc(-n2cc(-c3ccccc3)c3c(=S)nc[nH]c32)c1	4.9	-9.7	-10.4	7.9	i	-28.4	9.7	7.1
N#Cc1ccc(CN2CCN(C(=O)c3ccc(S(=O)(=O)N4CCCCCC4)cc3)CC2)cc1	x	0.3	-32.1	-17.1	x	8.9	x	x
COC(=O)c1ccccc1S(=O)(=O)N1CCC(C(=O)Nc2ccc(N3CCOCC3)cc2)CC1	11.9	10.5	5.0	-12.6	x	3.5	x	x
Cc1ccc(Nc2nc(N)nc(COC(=O)C3=COCCO3)n2)cc1	20.3	5.4	3.6	8.0	x	-13.3	x	x
CCOC(=O)C1CCCN(C(=O)c2cc3c(=O)n(C)c4ccccc4c3n2C)C1 (centres undefined)	4.6	0.4	2.0	-27.4	i	-11.4	4.9	-1.0
O=C(COC(=O)Cc1ccsc1)Nc1ccc(Br)cc1	8.0	-0.3	-4.5	x	x	-15.0	x	x
CCOC(=O)CN(C(=O)CNC(=O)c1cccs1)C(C(=O)NC1CCCC1)c1cccnc1 (centres undefined)	-123.1	2.0	5.9	-5.2	i	-12.9	0.3	-2.8
CC1(C)CC(=O)c2c(nn(-c3ccccc3)c2-c2ccncc2)C1	-52.6	3.6	6.5	-8.7	i	-12.8	1.5	-11.9
CS(=O)(=O)N1CCN=C1SCc1ccc([N+](=O)[O-])cc1	13.3	-2.0	-0.5	-12.3	i	x	-18.0	-4.4
CCOC(=O)c1nn(-c2ccc(C)cc2)cc1O	x	-0.8	-2.0	-20.0	i	-26.6	2.1	4.4
Cc1cccc(N2CCCC2=Nc2ccc(Br)cc2C#N)c1	-0.9	2.6	-2.2	18.0	i	-18.8	-1.9	-3.1
CC(=O)NC1CC2CCCC(C1)N2C(=O)Nc1cccc(Cl)c1 (centres undefined)	-3.2	0.5	1.5	x	x	-8.6	x	x
CCOc1ccccc1NC(=O)C(OC(=O)C1CC1)c1ccccc1 (centres undefined)	17.4	x	x	2.6	i	3.2	0.8	0.0
Cc1cccc(OCCNC(=O)c2cccc(Oc3ccc(C(F)(F)F)cc3[N+](=O)[O-])c2)c1	10.2	-0.3	-4.7	u	i	x	3.2	-0.3
CCc1nc2ccc(C(=O)Nc3cccc(OC)c3)cn2c1N(CC)Cc1cccc(Br)c1	9.5	-3.2	-2.6	x	x	-8.8	x	x
O=C1CCC(=O)N1c1cccc(OS(=O)(=O)c2ccccc2)c1	7.2	0.2	1.5	-3.4	i	x	1.2	12.0
O=C(Cn1nnc2ccccc21)NCc1ccccc1	x	2.7	-2.6	-26.4	i	-36.2	-6.2	-3.9
O=C(Nc1ccc2c(c1)OCO2)C1CCN(C(=O)CSc2ncnc3ccccc23)CC1	36.2	-2.4	-4.7	-6.0	x	-7.4	-5.2	22.1
c1ccc2oc(CCc3nc4ccccc4o3)nc2c1	x	1.3	3.3	-8.6	i	-12.2	-14.5	-5.9
COC(=O)[C@@H]1C[C@@]2(O)[C@H](O)[C@H](O)[C@H](O)C[C@H]2N1Cc1ccc(-c2ccccc2)cc1	2.2	0.6	1.5	2.0	i	-12.4	-4.2	-6.1
CC(=O)c1c(C)[nH]c(C(=O)Nc2cc(C)ccc2C)c1C	-6.5	-0.1	-1.1	21.9	i	-8.1	-4.3	7.1
Cc1cc(OCC(=O)OCC(=O)N2CCCc3ccccc32)ccc1Cl	u	-0.1	3.4	x	x	-7.3	x	x
Cc1ccc(NC(=O)C(CC(C)C)NC(N)=O)cc1Cl (centres undefined)	16.9	3.9	2.1	-4.1	i	x	-18.7	-12.5
COC(=O)c1ccc(OC(=O)c2ccc(OC)c(OC)c2)c(OC)c1	x	-0.3	2.3	8.7	i	-19.4	6.1	-13.1
CNC(=O)c1ccsc1NC(=O)CCS(=O)(=O)c1ccccc1	19.0	2.3	0.2	-3.1	i	x	-15.2	-7.6
Cc1cccc(N2CCN(C(=O)Cc3ccccc3[N+](=O)[O-])CC2)c1C	-2.9	1.8	-4.6	-18.3	i	4.8	-0.9	8.2
O=C(COC(=O)/C=C/c1nc2ccccc2s1)Nc1cccc(Cl)c1Cl	-16.8	6.6	4.0	4.7	i	x	0.5	5.1
O=C(O)C1CCN(C(=O)c2ccc(S(=O)(=O)N3CCCCCC3)cc2)CC1	10.1	0.4	4.4	x	x	-4.2	x	x
CCOC(=O)c1sc(NC(=O)CSc2nccc(C)n2)nc1C	10.6	-2.0	0.5	-6.7	i	x	-3.5	0.8
O=C(Nc1ccccc1N1CCOCC1)c1cc(-c2ccncc2)nc2ccccc12	9.2	-7.0	-3.2	7.9	i	-4.1	-2.1	1.8
O=C(OC1CCCCC1=O)c1cccc(S(=O)(=O)N2CCOCC2)c1 (centres undefined)	-275.8	2.8	2.3	-14.0	i	-8.8	x	x
CC(=O)NCCOC(=O)Nc1ccncc1	-15.7	-0.6	-1.2	10.2	i	-10.1	-4.3	3.0
COC(=O)Cn1cnc2c(C#N)c3n(c2c1=O)CCCCC3	-54.0	1.0	1.1	0.8	i	x	-3.5	5.3
Cc1sc2nc(COC(=O)c3ccc(Cl)c(N)c3)[nH]c(=O)c2c1C	-8.0	2.3	-1.1	-13.2	i	-21.4	63.1*	74.3*
Cc1cccc(NC(=S)N2CCC(c3nc4ccccc4o3)CC2)c1C	x	0.2	-5.4	30.4	i	-12.7	-12.4	-7.2
CCn1c(COc2ccccc2)nnc1SCC(=O)NC1CCCCC1	x	4.1	1.0	-9.9	i	-1.1	-10.7	0.2
CC1CCN(c2c(NCc3ccc(C(=O)NCc4ccccc4)cc3)c(=O)c2=O)CC1	-0.7	3.0	-1.3	x	i	-7.3	6.8	-8.1
C=CCn1c(COc2ccccc2OC)nc2ccccc21	7.3	2.0	1.6	-10.5	i	-18.9	3.5	-7.3
Cc1ccc(C)c(S(=O)(=O)N/N=C2/CCCc3ccccc32)c1	x	-2.9	-7.3	x	i	-18.5	-4.5	-1.1
O=C1CCC(=O)N1c1ccc(-c2nc3sc4c(c3c(=O)o2)CCC4)cc1	-8.6	0.3	-3.3	4.9	i	x	5.4	-2.2
Cc1ccccc1-c1cc2c(nn1)-c1ccccc1C2=O	-52.6	11.3	8.6	107.9*	i	-36.7	26.0	4.3
Cc1cccc(N2CC(C(=O)NCC3COc4ccccc4O3)CC2=O)c1C (centres undefined)	-2.0	-0.3	-0.6	x	x	-6.7	x	x
COc1cc(CNc2ccc3[nH]c(=O)[nH]c3c2)ccc1OCc1ccc(F)cc1Cl	-12.8	-0.8	-2.8	8.9	i	-5.3	-3.1	1.6
COCCSc1ccccc1C(=O)Nc1nnc(COC)s1	-64.2	1.2	1.0	-20.0	i	-16.5	-0.9	-3.3
CN(c1ccccc1)S(=O)(=O)c1cccc(NC(=O)CN2CCCc3ccccc32)c1	8.9	-9.6	-12.6	-13.1	i	-17.9	7.8	-4.8
CCOC(=O)c1c(NC(=O)C2C3C=CC(C3)C2C(=O)O)sc2c1CC(C)(C)OC2 (centres undefined)	-13.5	-0.8	-1.0	3.3	i	x	0.2	-4.3
C=CCn1c(SCC(=O)NC(=O)NCCC)nnc1C1CCCCC1	x	-1.2	-0.6	-6.4	i	-17.5	4.2	-8.7
Cc1sc(NC(=O)c2ccco2)c(C(=O)c2ccc(Cl)cc2)c1C	-5.0	2.7	0.7	-8.7	i	x	9.5	7.6
Fc1ccccc1OCCCN1CCOCC1	-2.0	11.5	-0.3	-3.1	i	1.0	8.8	14.4
COC(=O)c1cc(S(=O)(=O)NCC2CCN(Cc3ccc(C)cc3)CC2)c[nH]1	-3.4	-0.8	1.0	-6.5	i	-2.4	-2.1	2.0
S=c1[nH]ccn1-c1ccccc1Cl	-5.5	0.2	4.8	-12.1	i	-6.5	-10.9&10.6	-3.1&2.6
Cc1ccc(/C=N/NC(=O)c2ccc(N(C)S(=O)(=O)c3ccccc3)cc2)cc1	0.3	-0.3	0.3	1.3	x	-9.2	2.5	-4.1
COc1cc(-c2nc(Cc3ccccc3Cl)no2)cc(OC)c1OC	u	1.7	-4.0	57.1	i	-13.4	-1.3	-1.6
O=C(CC12CC3CC(CC(C3)C1)C2)NCc1ccccc1	-2.3	-0.2	0.8	-8.9	i	34.4	-2.1	-2.7

Other structures:
SMILES	HIV Env fusion	MT1-MMP act inh	MT1-MMP act inh RFP	CSC inhib	Rce1 inh	UUG fidelity	PABP polyA inh	eIF4H inh
Cc1ccc(S(=O)(=O)N2CCCOC2CNC(=O)C(=O)NCc2ccncc2)cc1 (centres undefined)	0.3	3.7	9.9	-7.0	i	x	11.0	4.7
CCN1CC(CN(C)Cc2cn(-c3ccc(C)cc3)nc2-c2ccc(F)cc2)CC1=O (centres undefined)	-11.4	-2.2	-1.5	-3.2	i	x	1.8	1.8
C=CC(=O)NC(NC(=O)C=C)c1ccc(Br)cc1	i	9.5	8.1	-2.0	i	-0.2	5.9	7.1
Cc1nc(S(=O)(=O)c2ccc(Br)cc2)nc2c1CCC2	7.5	x	x	11.9	i	x	8.2	8.3
O=C(N(Cc1ccccc1)c1ccccn1)C12CC3CC(CC(C3)C1)C2	122.1*	-3.7	-3.2	-7.4	i	-12.1	2.6	1.2
COc1ccc(CSc2nnc3[nH]c(=O)cc(N)n23)cc1	-8.0	1.4	-3.5	-11.9	i	x	-2.8	14.9
COc1cccc(C2CC(c3cccs3)=NN2C(=O)c2ccco2)c1O (centres undefined)	0.9	-2.4	1.2	-13.9	i	8.5	-7.1	-6.0
c1ccc(CCCNc2ncccn2)cc1	-49.0	-1.6	0.8	0.0	i	x	8.5	-4.1
O=C(NCC1(N2CCOCC2)CCCCC1)c1cccc(S(=O)(=O)N2CCc3ccccc3C2)c1	7.5	-1.8	-5.6	x	i	-0.5	-0.8	-6.9
O=C(C1CCN(S(=O)(=O)c2ccc(Cl)cc2)CC1)N1CCCCCCC1	-10.8	1.6	-2.2	-2.2	i	3.2	40.4	9.7
CCN(C(=O)COC(=O)Cc1ccc(F)cc1)c1c(N)n(Cc2ccccc2)c(=O)[nH]c1=O	x	3.0	1.7	-9.4	x	-19.3	x	x
Cc1ccc(-c2nc(C(=O)NCCCN(C)C)cc3c2[nH]c2ccccc23)cc1	-40.3	8.7	-1.5	9.8	i	-9.4	-12.7	-7.7

3 compounds out of the list above, ordered by their value in UUG fidelity, falling:
structure	HIV Env fusion	MT1-MMP act inh	MT1-MMP act inh RFP	Rce1 inh	UUG fidelity
COc1cccc(C2CC(c3cccs3)=NN2C(=O)c2ccco2)c1O (centres undefined)	0.9	-2.4	1.2	i	8.5
C=CC(=O)NC(NC(=O)C=C)c1ccc(Br)cc1	i	9.5	8.1	i	-0.2
Cc1ccc(-c2nc(C(=O)NCCCN(C)C)cc3c2[nH]c2ccccc23)cc1	-40.3	8.7	-1.5	i	-9.4

Compound activity (PubChem BioAssay)
